# Compound activity deposited in PubChem BioAssay by several laboratories.
# Mtb H37Rv: M. tuberculosis H37Rv growth inhibitors, H37Rv strain (AID 1626). inhibition, % at 10 µM; hits with a dose series show IC50 in µM. hit rate 0.95% among 220,000. M. tuberculosis H37Rv growth inhibition; higher % means a stronger effect;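 active = confirmed in a dose series; inconclusive = inhibition above 80% but not taken into the dose series; inactive = below 80% or under 30% at every dose of the series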;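 note: bacteria incubated seven days before Alamar blue readout; 0% = bacteria only wells and 100% = bacteria with antibiotic wells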
# Mtb betalactam: beta-lactam sensitization of Mtb H37Rv. M. tuberculosis H37Rv growth with meropenem, percent inhibition; hits of this screen are not shown here. inhibition, % at 25 µM. hit rate 0.27% among 330,000;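 active = about 74% or more and at least 40 points above the plate without the antibiotic, then above 30% in a dose series; inconclusive = first-round hits that could not be retested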;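 note: growth measured after seven days incubation then overnight dye step; 0% = bacteria only wells and 100% = bacteria with antibiotic; twin plates without the antibiotic show which effects depend on it; some results filed as inactive read as strong as hits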
# RecA intein inh: Mtb RecA intein splicing inhibition; P9WHJ3; cell-free RecA intein splicing, fluorescence; inhibition, %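 (about 9 µM by stock and volumes)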; hit rate 0.75% among 290,000; AID 2221; in the data active = inhibition above about 30%; inconclusive = no clear call, values can overlap the other calls;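 note: 0% = vehicle wells and 100% = reference inhibitor control wells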
# Target sequence (P9WHJ3 whole entry, looked up): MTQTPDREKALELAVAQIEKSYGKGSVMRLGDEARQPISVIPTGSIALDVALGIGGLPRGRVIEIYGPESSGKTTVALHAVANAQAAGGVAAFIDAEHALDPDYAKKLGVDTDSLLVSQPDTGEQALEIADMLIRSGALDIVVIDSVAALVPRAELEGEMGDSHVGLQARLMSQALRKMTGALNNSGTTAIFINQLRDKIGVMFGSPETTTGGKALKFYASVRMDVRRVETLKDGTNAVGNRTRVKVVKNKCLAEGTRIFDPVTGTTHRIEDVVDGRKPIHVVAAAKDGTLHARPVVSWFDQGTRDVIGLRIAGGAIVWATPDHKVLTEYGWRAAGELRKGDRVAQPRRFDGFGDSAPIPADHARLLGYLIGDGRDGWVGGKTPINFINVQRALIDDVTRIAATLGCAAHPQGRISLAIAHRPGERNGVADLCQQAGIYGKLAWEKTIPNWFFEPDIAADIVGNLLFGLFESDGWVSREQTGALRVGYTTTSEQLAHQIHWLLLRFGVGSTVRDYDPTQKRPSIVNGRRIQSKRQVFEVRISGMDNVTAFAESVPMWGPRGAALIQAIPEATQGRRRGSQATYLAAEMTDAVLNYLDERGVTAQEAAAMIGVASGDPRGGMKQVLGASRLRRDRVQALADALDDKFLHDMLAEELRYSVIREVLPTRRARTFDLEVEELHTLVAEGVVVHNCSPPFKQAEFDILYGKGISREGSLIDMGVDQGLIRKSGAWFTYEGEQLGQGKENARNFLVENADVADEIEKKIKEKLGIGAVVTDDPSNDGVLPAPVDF
# YopH inh: inhibitors of Yersinia enterocolitica YopH tyrosine phosphatase; fluorescence Ex485/Em525; inhibition, %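 (about 10 µM by stock and volumes)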; hit rate 0.16% among 140,000;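 active = inhibition of 50% or more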;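 note: controls were vehicle for no effect and minimum signal wells for full effect; inactives centre near -20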
# Arbovirus inh: blocks arbovirus infection. arbovirus infection cell-based antiviral screen. inhibition, % at 10 µM. hit rate 0.37% among 200,000. AID 1251;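 active = inhibition from about 30%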;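 note: bluetongue infection of BSR cells; cell survival read as ATP light after 72 h; 0% = infected wells without compound and 100% = uninfected wells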
# Arbovirus inh repeat: second read-out of Arbovirus inh, no call of its own (marks repeat the call); inhibition, %; measured here: 10K subset replicate screen; many hits read low in the repeat;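 first of two repeat runs on a subset; 0% = infected and 100% = uninfected wells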
# Active calls of the source: *; i = inactive; u = inconclusive; x = not tested or not shown. These rows are one share of the data, so the mix of outcomes need not match the whole.
SMILES,Mtb H37Rv,Mtb betalactam,RecA intein inh,YopH inh,Arbovirus inh,others
C=CCOC(=O)C1=C(C)NC(C)=C(C(=O)OCC=C)C1/C=C/c1ccccc1,2%,1,5.2,-41,-36,
N#Cc1cc(C(=O)c2ccccc2O)cn(-c2nccs2)c1=O,-1%,-1,-41,1,-19,
Cc1nnc(SCC(=O)N(CC(C)C)c2c(N)n(CC(C)C)c(=O)[nH]c2=O)n1-c1ccccc1,0%,-9,-0.3,x,5,
N#CCC(=O)N/N=C/c1coc2ccccc2c1=O,0%,72,0.4,x,x,
O=C(NCc1ccccn1)C1Nc2ccc(C(F)(F)F)cc2C2C=CCC12 (centres undefined),2%,73,0.6,x,x,
NC(=O)C1=C[C@@H](c2ccc(C(F)(F)F)cc2)C[C@@H](OCCCCO)O1,2%,1,3.0,x,2,
CC(C)Cc1ccc(C#N)c(SCC(N)=O)n1,10%,3,0.0,-51,8,Arbovirus inh repeat=4
COc1cc(NC(C)CCc2ccccc2)cc(OC)c1OC (centres undefined),x,-1,9.7,x,x,
CCOC(=O)N1CCN(CCC(=O)Nc2cccc(Cl)c2C)CC1,x,-3,-2.4,x,x,
COc1ccc(C2c3ccc(O)cc3Oc3ncn(Cc4ccco4)c(=N)c32)cc1 (centres undefined),3%,5,18,x,x,
COc1ccc2c(c1)c(=O)cc(C)n2CC(=O)NCc1ccco1,70%,14,1.9,93*,3,
O=C(Nc1ccnn1C1CCN(Cc2ccc(C#CCCO)cc2)CC1)c1cccc(F)c1,x,-3,-0.4,x,x,
Cc1ccc(NC(=O)C(=O)NCCN2CCN(S(C)(=O)=O)CC2)cc1,6%,-6,9.0,x,1,
O=C(NCCc1cccs1)C1CC(c2cccc([N+](=O)[O-])c2)=NO1 (centres undefined),-8%,-10,1.0,-19,8,
COc1ccc(Cl)cc1NC(=O)CCNS(=O)(=O)c1cccc2nonc12,x,5,-0.6,x,x,
N#C/C(=C\c1ccc(OCCN2CCOCC2)cc1)C(=O)Nc1ccc(S(N)(=O)=O)cc1,x,0,-0.4,x,x,
Cc1cc(/C=N/NC(=O)C(O)(c2ccccc2)c2ccccc2)c(C)n1-c1ccccc1,4%,6,x,9,-15,
CCOC(=O)c1c(N)sc2c1CCC(C)C2 (centres undefined),84%,17,-12,-12,5,
CCCS(=O)(=O)Nc1c(C(=O)O)[nH]c2ccccc12,2%,2,7.2,-10,1,
Cc1ccc(C2CCN(C(=S)Nc3cccc(Cl)c3)C2)cc1 (centres undefined),23%,1,8.3,x,-2,
Fc1ccc(CSc2ncnc3sc4c(c23)CCCC4)cc1,1%,36,-2.8,-27,13,
COc1ccc(/C(O)=C2/C(=O)C(=O)N(Cc3cccnc3)C2c2ccco2)cc1OC (centres undefined),-16%,3,2.2,-39,10,
Cc1cc(C(=O)COC(=O)c2ccccc2O)c(C)n1Cc1cccs1,1%,-3,-1.9,-17,-5,
O=C(c1ccc(S(=O)(=O)c2cccc(Cl)c2)c([N+](=O)[O-])c1)N1CCN(c2ccccn2)CC1,3%,40,29,x,-39,
CCn1c(SCC(=O)Nc2nc(-c3ccccc3)cs2)nc2c1c(=O)n(C)c(=O)n2C,8%,-1,1.2,-28,-9,
O=C1Nc2ccccc2/C1=N/N=C/c1ccc(-c2ccc([N+](=O)[O-])cc2)o1,93%,x,-1.1,x,-2,
O=S(=O)(Cc1ccccc1)NCc1cccnc1,-7%,u,0.3,4,6,
Cc1ccc(CCC(=O)NCc2ccccc2)o1,x,10,1.8,x,x,
O=C(CS(=O)(=O)Cc1ccccc1)Nc1nc2ccccc2s1,0%,-18,3.1,-25,48*,Arbovirus inh repeat=4.3*
COc1ccc(S(=O)(=O)N2CCCC(C(=O)NCc3ccncc3)C2)cc1 (centres undefined),-4%,-9,0.3,41,5,
O=c1[nH]c(O)c(C=Nc2ccc(F)c(Cl)c2)c(=O)[nH]1,x,-1,1.5,x,x,
O=C(CCN1CCCCC1)NNC(=S)NC(=O)c1ccc(Br)cc1,14%,19,-0.6,x,9,
OCn1ncn(-c2ccccc2)c1=S,-10%,-5,-1.6,-36,2,
COc1ccccc1CCNC(=O)c1csc2c1CCCC2,1%,-5,-1.4,x,0,
CCCCCc1cc(=O)oc2c(C(CCN3CCCC(C)C3)c3ccc(N(C)C)cc3)c(OC)cc(OC)c12 (centres undefined),5.6µM*,100,31*,x,x,
Nc1nnc(CC(=O)N/N=C/c2ccc(-c3ccc(Cl)cc3Cl)o2)s1,u,13,-11,x,x,
CC(C)OCCCNC(=O)c1cc(-c2cccnc2)nc2ccccc12,x,0,-0.1,x,x,
CC(=O)Nc1cccc(C(=O)/C=C/c2cccs2)c1,74%,40,-1.0,2,12,
Cc1cccc(C)c1NC(=O)C/C(N)=N/O,-12%,3,-1.8,-19,3,
COc1ccc(/C=C2/C(=O)ON=C2C)cc1Br,x,1,0.2,x,x,
Cc1cccc(C(=O)NNC(=O)CCCCC(=O)NNC(=O)c2cccc(C)c2)c1,x,6,-6.6,x,x,
COc1cc(N)c(Cl)cc1C(=O)OCC(=O)N1CCCC1,x,-7,-1.0,x,x,
CCc1nc(-c2cc3ccc(C)cc3[nH]c2=O)no1,-3%,-15,-0.2,-53,6,
CC(=O)N1CCc2cc(S(=O)(=O)NC(CC(C)C)C(=O)Nc3ccc4c(c3)OCCO4)ccc21 (centres undefined),3%,-7,x,-7,1,
COc1ccc(COC(=O)C2=C(C)NC(=O)NC2c2cccc(OC)c2OC)cc1 (centres undefined),x,-6,0.1,x,x,
CC(=O)N1CCN(C(=O)c2ccc(-n3c(C)ccc3C)cc2)CC1,1%,2,-0.5,-15,7,
CC(C)OP(=O)(OC(C)C)/C(C=O)=N\Nc1ccc([N+](=O)[O-])cc1,-3%,1,0.9,x,x,
COc1ccc(O)c(C(=O)c2cnn(-c3ccc(Cl)cc3)c2)c1,x,1,3.6,x,x,
CCCCC1CCC(C(=O)OC(C)C(=O)Nc2ccc(NC(C)=O)cc2)CC1 (centres undefined),x,-10,-4.3,x,x,
CC(=O)c1cn(CCOc2ccc(F)cc2)c2ccccc12,x,6,-0.5,x,x,
O=C(CN1C(=O)C2CC=CCC2C1=O)Nc1nnc(SCc2c(Cl)cccc2Cl)s1 (centres undefined),-1%,1,1.9,-1,-10,
CC(C)CN1C(=O)NC(NS(=O)(=O)c2ccc(N)cc2)(C(F)(F)F)C1=O (centres undefined),1%,-6,2.4,-26,-2,
O=C(Nc1ccc(F)cc1F)C1CCCN1S(=O)(=O)c1cccc2nsnc12 (centres undefined),x,2,2.0,x,x,
CCc1nnc(NC(=O)c2ccc(S(=O)(=O)N3CCCc4ccccc43)cc2)o1,u,-3,5.0,-35,-33,
Cc1cc(NC(=O)c2ccc(C)s2)n(-c2nc3ccccc3[nH]2)n1,84%,86,-0.8,-49,-10,
O=C(COn1nnc2ccc(S(=O)(=O)N3CCOCC3)cc21)Nc1c(F)c(F)c(F)c(F)c1F,-3%,-1,3.3,x,2,
O=C(CCOc1ccccc1)NCc1ccccc1,-3%,-6,-0.6,27,-2,
CC(OC(=O)Cc1n[nH]c(=O)c2ccccc12)C(=O)Nc1ccc(Cl)cn1 (centres undefined),x,u,1.0,x,x,
O=C(CSc1nc(C(F)(F)F)cc(=O)[nH]1)N1CCCC1,x,0,-0.9,x,x,
COCCNC(=O)CCCCCn1c(=S)[nH]c2ccccc2c1=O,-3%,2,-1.1,-14,5,

# The list goes on.
SMILES,Mtb H37Rv,Mtb betalactam,RecA intein inh,YopH inh,Arbovirus inh,others
Cc1ccc(S(=O)(=O)c2ccc(NN)cc2)cc1,-4%,x,x,x,-4,
COc1ccc(NC(=S)N2CCN(S(=O)(=O)c3ccccc3)CC2)cc1,x,4,0.4,x,x,
Cc1ccc(Cl)cc1NC(=O)C[n+]1ccc(Cc2ccc([N+](=O)[O-])cc2)cc1,29%,83,-1.6,x,-2,
COc1ccccc1CNC(=O)c1ccc(NS(=O)(=O)c2cccs2)cc1,x,-10,3.2,x,x,
c1ccc(-n2nnnc2Oc2cccc3cccnc23)cc1,11%,95,2.3,-25,-16,
COC(=O)C1=C(C(=O)OC)[C@@H]2N(Cc3ccccc3)c3ccccc3[C@@]23C[C@@H](CO)N(C(=O)NC2CCCC2)C3=N1,0%,-2,8.6,x,x,
CCOc1ccccc1C1N=C(c2ccc(OC)cc2)CC(c2ccccc2O)N1 (centres undefined),8%,23,-1.8,x,7,
O=C(Nc1nnc(-c2ccco2)o1)c1cccc2ccccc12,2.3µM*,95,-2.4,-17,-16,
Cc1cc(C)[n+](C2C3CC4CC(C3)CC2C4)o1 (centres undefined),6%,u,-2.3,-9,18,
O=C(Cn1cccc1C(=O)c1ccccc1)NCc1ccc(Cl)cc1,0%,0,2.7,x,2,
O=c1[nH]c(=O)c2nc(-c3ccc(Cl)cc3)cnc2[nH]1,-14%,-4,i,x,-4,
CCC(=O)N(CCC(c1ccccc1)c1ccco1)Cc1cccs1 (centres undefined),0%,-4,16,-4,-6,
O=C(N/N=C/c1cccc(O)c1)c1cc2c(ccc3ccccc32)o1,x,-2,-0.4,x,x,
CC(C)(C)n1nc2c(c1NC(=O)COc1ccc3ccccc3c1)CS(=O)C2 (centres undefined),x,0,17,-29,3,
CC1Cc2ccccc2N1C(=O)COC(=O)C1=COCCO1 (centres undefined),x,88,-1.4,-34,6,
Cc1ccc2sc(NNC(=O)c3cc(=O)c4ccccc4o3)nc2c1C,x,5,0.1,x,-17,
Cc1cccc(C)c1OCC(=O)NC1CC1,x,-5,-0.2,x,x,
NC(N)=NC(N)=Nc1cccc2ccccc12,1%,1,-1.4,x,x,
Cc1oc(C)c(C(=O)NCCCC(=O)O)c1C(=O)NCCCC(=O)O,0%,13,-1.6,-12,1,
CCN(Cc1ccccc1)S(=O)(=O)c1cc(C(=O)c2c(N)n(C)c(=O)n(C)c2=O)ccc1OC,-3%,3,-3.5,x,-6,

# Structural class, the compounds so far containing a cyano group (4)
SMILES,Mtb H37Rv,Mtb betalactam,RecA intein inh,YopH inh,Arbovirus inh,others
N#Cc1cc(C(=O)c2ccccc2O)cn(-c2nccs2)c1=O,-1%,-1,-41,1,-19,
N#CCC(=O)N/N=C/c1coc2ccccc2c1=O,0%,72,0.4,x,x,
CC(C)Cc1ccc(C#N)c(SCC(N)=O)n1,10%,3,0.0,-51,8,Arbovirus inh repeat=4
N#C/C(=C\c1ccc(OCCN2CCOCC2)cc1)C(=O)Nc1ccc(S(N)(=O)=O)cc1,x,0,-0.4,x,x,

# Remaining list, next part:
SMILES,Mtb H37Rv,Mtb betalactam,RecA intein inh,YopH inh,Arbovirus inh,others
COc1ccc(CC(=O)OCc2cc3cccc(C)c3[nH]c2=O)cc1,4%,-7,-0.1,-44,3,
Cc1ccc(-n2nnnc2SCCNS(=O)(=O)c2ccccc2)cc1C,0%,-4,5.3,1,-6,
Cc1cc(OCC(=O)N[C@@H](Cc2ccccc2)c2nc3ccccc3[nH]2)ccc1Cl,-5%,7,1.1,-12,-5,
NC(=O)c1ccsc1NC(=O)CSc1nnc(Nc2ccccc2)s1,-6%,0,3.4,x,2,
CCc1ccc(/C=C2/SC(=S)N(CCCC(=O)Nc3ccccc3C(=O)O)C2=O)cc1,x,9,23,x,x,
CCOC(=O)c1nn(-c2ccccc2)c(=O)cc1SC(C)CC (centres undefined),2%,69,x,-27,-1,
O=C(c1ccc(Br)s1)N1CCN(c2ccccn2)CC1,x,-4,4.2,x,x,
Cc1cc(-c2nnc(SCC(=O)Nc3ccccn3)o2)no1,3%,-8,1.6,x,1,
COc1ccc(C2(C)NC(=O)N(CC(=O)Nc3ccc4[nH]c(=O)[nH]c4c3)C2=O)cc1 (centres undefined),x,-8,-1.3,x,x,
CSC1=NSC2=NC(=O)/C(=C\c3cccs3)C(=N)N12,-1%,4,3.8,2,41*,
O=C(N=Nc1c(O)[nH]c2ccccc12)c1cc(-c2cccs2)[nH]n1,6%,0,-1.0,x,x,
COc1ccc(CCNC(=O)c2cnccn2)cc1,2%,-5,2.7,-49,13,Arbovirus inh repeat=-2
Cc1ccc(-c2cc3c(nn2)-c2ccccc2C3=O)cc1,x,59,12,x,-13,Arbovirus inh repeat=-3
O=C(O)CP(=O)(c1ccccc1)c1ccccc1,7%,1,-1.2,-53,-7,
Cc1ccc(NC2(C(F)(F)F)N=C(c3ccccc3)NC2=O)nc1 (centres undefined),2%,0,6.0,9,-3,
Cc1ccc(C(=O)c2c3ccccc3[n+]([O-])n2CCC(N)=O)cc1,x,-1,3.3,x,x,
Cc1nc(C(=O)NCc2ccccc2)sc1C1(C)CC(c2cccnc2)=NO1 (centres undefined),9%,-6,-2.5,x,x,
Cc1ccc(NS(=O)(=O)c2ccc(C(=O)N3CCCCCCC3)cc2)cc1,x,-5,3.5,x,x,
Cc1ccsc1C1C2=C(CCCC2=O)Nc2ncnn21 (centres undefined),-6%,1,-1.1,-16,6,
Cc1c(N)cc[n+](CC(=O)c2ccccc2)c1C,1%,0,-3.2,x,11,
